gsp antag: qHTS for Antagonists of gsp, the Etiologic Mutation Responsible for Fibrous Dysplasia/McCune-Albright Syndrome: qHTS. Potency, µM (titrated, usually from 76.9 µM), for inactives: at the highest dose activity change, negative = inhibition, hits mostly inhibitors. hit rate 0.4% among 340,000. gsp-mutant cells, cAMP HTRF, 30 min; control for the full effect not named in the record; active = falling curve of any shape with a large fitted effect; inconclusive = falling curve, mostly with a smaller effect; inactive = flat or rising curve; cell line not stated here;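 note: intracellular cAMP measured with PDE inhibitor Ro 20-1724 present during compound exposure; potency is the fitted concentration of half-maximal effect; % is set by controls: 0 for no effect and ±100 for the full control effect; nearly all actives have a fitted effect of over 65% in size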
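Cells, 2000/well, grown 16–24 h in DMEM 10% FBS with 0.5 mg/ml G418, then compounds plus […] (300 uM addition stock), 30 min at 37C. cAMP read by HTRF (cAMP-d2 and anti-cAMP antibody-K in lysis buffer) after 30 min RT.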
TRPML1 blocker: qHTS for Inhibitors of the Human Mucolipin Transient Receptor Potential 1 (TRPML1); hit rate 0.02% among 390,000; TRPML1-inducible cells, Ca2+ dye fluorescence, FDSS; active compounds read low; inhibition of EC80 agonist-evoked calcium signal; activity change, negative = inhibition, % (no concentration beside the values); Mucolipin-1 (Homo sapiens), Q9GZU1; in the data active means activity change below about -50%; inconclusive means about -30% to -50%; inactive means above about -30%;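 note: stimulus is agonist 54-4 at its EC80 concentration; % is set by controls: 0 for no effect and ±100 for the full control effect; compound concentration not given in the record; the text of the record puts the active cut at -80%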
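Calcium fluorescence in TRPML1-DL cells induced overnight with Tet: a 110 s read after compound pin addition, then a 110 s antagonist read after challenge with 54-4 at 4 uM final (EC80).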
ClpP mod: qHTS Assay for Activators of ClpP; ATP-dependent Clp protease proteolytic subunit (Bacillus subtilis (strain 168)), P80244; purified B. subtilis ClpP, FRET peptide cleavage, 20 min; Potency, µM (series often up to 57.5 µM), inactives show at the top dose activity change, negative = active; hit rate 1.9% among 340,000; AID 651965, 2013; active = well fitted falling curve with a large enough effect; inconclusive = small, poorly fitted or top-dose-only effect; inactive = no such curve, though single readings can be large or run the other way; note: potency is the fitted concentration of half-maximal effect; the source files actives as falling curves though it sought activators and does not explain the sign; nearly all actives have a fitted effect of over 65% in size; many hits overshoot -100%
Target sequence (P80244 whole entry, looked up): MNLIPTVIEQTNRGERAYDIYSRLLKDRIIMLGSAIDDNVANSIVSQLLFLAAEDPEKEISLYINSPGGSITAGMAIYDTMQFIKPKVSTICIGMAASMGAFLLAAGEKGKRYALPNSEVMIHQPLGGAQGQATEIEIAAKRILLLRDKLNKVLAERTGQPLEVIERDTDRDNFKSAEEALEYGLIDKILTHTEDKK
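ClpP 10 microg/mL final, pH 8 Tris/KCl buffer with BSA, glycerol, Tween-20; compound pinned in; FRET-FV substrate; RT 20 min; Ex320/Em430; ΔFRET vs ADEP 5.8 microM, DMSO, no enzyme.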
gsp agonist: qHTS for Agonist of gsp, the Etiologic Mutation Responsible for Fibrous Dysplasia/McCune-Albright Syndrome: qHTS; gsp mutant cells, cAMP HTRF, 30 min; control for the full effect not named in the record; Potency, µM (top dose mostly 76.9 µM), for inactives: top-dose activation (cAMP increase), hits mostly activators; hit rate 0.13% among 340,000; AID 624287, 2012; active = well fitted activation curve with a large enough effect; inconclusive = small, poorly fitted or top-dose-only effect, or another doubt; inactive = no such curve, though single readings can be large or run the other way; cell line not stated here;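 note: phosphodiesterase inhibitor Ro 20-1724 added with compounds to block cAMP breakdown; potency is the fitted concentration of half-maximal effect; nearly all actives have a fitted effect of over 60% in size; about a fifth of the inactives were tested at one dose only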
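Cells stably selected in G418 were plated at 2000/well, grown 16-24 hr, then given compounds in DMSO with the PDE inhibitor […] (300 uM solution added) for 30 min at 37C; cAMP was read by HTRF.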
Menin-MLL FL inh: qHTS Assay for Inhibitors Targeting the Menin-MLL Interaction in MLL Related Leukemias: Competition With Fluorescein Labeled MLL-derived Peptide. Fluorescence polarization, fluorescein-MLL peptide displacement from menin. FP activity change, % at 61.4 µM. 290,000 tested, under 10 active. AID 1766, 2009; inconclusive = falling polarisation curve, or a change in total fluorescence; inactive = total fluorescence flat and polarisation flat or rising; no compound was filed as active; the % refers to the polarisation; negative = inhibition;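 note: % of control where 0% means no effect; inhibitors lower the polarisation; unlabelled MLL peptide was the positive control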
TRPV1 potentiator: HTS Assay for Compounds that Act as Potentiators of the Vanilloid Receptor 1 | Transient receptor potential cation channel subfamily V member 1 (Homo sapiens), Q8NER1 | TRPV1-expressing cells, Fluo-8 calcium influx, capsaicin EC20 potentiation; host cell line not named in the record; control for the full effect not named in the record | potentiation, % at 8.33 µM | hit rate 0.02% among 320,000 | AID 540277, 2011; active means potentiation above 80%; inconclusive means 30% to 80%; inactive means below 30%; note: 0% is about no effect
Target sequence (Q8NER1 whole entry, looked up): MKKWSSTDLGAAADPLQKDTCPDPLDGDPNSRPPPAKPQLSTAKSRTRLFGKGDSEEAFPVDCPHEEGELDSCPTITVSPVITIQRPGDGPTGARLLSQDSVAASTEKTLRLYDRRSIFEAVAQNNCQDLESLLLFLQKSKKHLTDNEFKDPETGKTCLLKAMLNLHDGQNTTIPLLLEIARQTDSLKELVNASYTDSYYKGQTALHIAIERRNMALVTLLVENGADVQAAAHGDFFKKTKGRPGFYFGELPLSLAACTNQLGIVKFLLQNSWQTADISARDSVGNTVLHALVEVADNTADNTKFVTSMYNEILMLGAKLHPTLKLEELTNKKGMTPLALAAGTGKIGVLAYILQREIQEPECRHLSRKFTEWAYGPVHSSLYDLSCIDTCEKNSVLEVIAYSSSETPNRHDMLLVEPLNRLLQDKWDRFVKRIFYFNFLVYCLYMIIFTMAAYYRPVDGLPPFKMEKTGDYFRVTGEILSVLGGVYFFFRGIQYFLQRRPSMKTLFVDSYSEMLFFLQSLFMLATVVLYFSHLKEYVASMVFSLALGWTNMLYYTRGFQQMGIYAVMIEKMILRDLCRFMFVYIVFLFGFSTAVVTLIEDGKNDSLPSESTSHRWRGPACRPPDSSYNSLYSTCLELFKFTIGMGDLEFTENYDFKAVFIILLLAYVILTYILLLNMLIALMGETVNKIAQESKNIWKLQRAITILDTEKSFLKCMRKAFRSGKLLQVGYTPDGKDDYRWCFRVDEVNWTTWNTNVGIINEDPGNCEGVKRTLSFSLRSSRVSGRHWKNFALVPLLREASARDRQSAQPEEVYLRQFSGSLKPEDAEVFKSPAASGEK
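Fluo-8 calcium influx in TRPV1-expressing cells, kinetic read (ex 480/em 520 nm). Compound added and read 3 min for agonist activity, followed by capsaicin at EC20 final and 2 min further read for enhancement.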
Sfp inh: qHTS Assay for Inhibitors of Bacillus subtilis Sfp phosphopantetheinyl transferase (PPTase); 4'-phosphopantetheinyl transferase ffp (Bacillus subtilis), Q9F4F7; Biochemical Sfp PPTase activity, qHTS; Potency, µM, inactives show max response, negative = inhibition, usual class: inhibitors; hit rate 3.5% among 310,000; active = well fitted inhibition curve with a large enough effect; inconclusive = small, poorly fitted or top-dose-only effect, or another doubt; inactive = no such curve, though single readings can be large or run the other way;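 note: the enzyme is Sfp with the accession as filed and its product quenches rhodamine fluorescence; potency is the fitted concentration of half-maximal effect; 0% = enzyme reaction without inhibitor and -100% = no enzyme wells; top concentration of the series not given in the record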
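Fluorescence-quenching assay: 15 nM Sfp-PPTase preincubated 15 min at room temperature with compound, then 5 uM rhodamine-CoA and 12.5 uM BHQ-2-labelled YbbR peptide added. Fluorescence (ex 525/em 598 nm) read at start and after 30 min; difference gives rate.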
Active calls of the source: *; ? = inconclusive; / = not tested or not shown; [ ] = dose if it differs, or a comment.

No.	compound	gsp antag	TRPML1 blocker	ClpP mod	gsp agonist	Menin-MLL FL inh	TRPV1 potentiator	Sfp inh
1	O=C(CCC1CCCCC1)Nc1nnc(C(F)(F)F)s1	-3%	12	-0.9%	1%	-1.3	4	14%
2	CCCN(CCC)C(C)C(=O)NCC1(c2ccccc2)CCCC1 (stereo not drawn)	-9%	?	1.7%	-22%	0.5	-32	4%
3	CCOC(=O)C1CCCN(c2cc(NCCCO)c([N+](=O)[O-])c3nonc23)C1 (stereo not drawn)	/	/	/	/	3.2	14	6%
4	O=C1CC(N2CCSCC2)C(=O)N1c1cccc(Br)c1 (stereo not drawn)	8%	-11	/	6%	-2.5	-2	21%
5	O=C(NCCCN1CCOCC1)C1Cc2c(ccc3ccccc23)O1 (stereo not drawn)	4%	16	-2.0%	-15%[15.4 µM]	-5.8	?	20%
6	Cc1nc([N+](=O)[O-])cn1Cc1cccc([N+](=O)[O-])c1	3%	33	/	11%	-0.4	-7	16%
7	COc1ccc(C)cc1NC(=O)C/C(C)=N/NC(=O)Cc1cccc2ccccc12	-8%	19	/	-2%	/	9	-7%
8	Cc1cc(C[n+]2cc(Cl)ccc2N)c2ncccc2c1	12%	39	/	?	4.2	-1	16%
9	CN(C(=O)Nc1ccccc1)C1CCCc2ccccc21 (stereo not drawn)	14%	-15	/	16%[15.4 µM]	-1.5	-20	9%
10	O=c1cc2c(nn1Cc1ccccc1)-c1ccccc1CC2	4%	10	/	5%[15.4 µM]	0.5	0	4%
11	CCn1c(SCC(=O)Nc2cc(C)on2)nnc1-c1cccnc1	5%	-11	-1.1%	-9%	0.3	2	1%
12	CCn1c(CSCc2ccc(Cl)cc2)n[nH]c1=S	-1%	48	/	8%	-2.3	-2	-11%
13	Nc1nc(C23CC4CC(CC(C4)C2)C3)[nH]c(=O)n1	4%	-8	-4.6%	-30%	1.4	11	10%
14	CCNc1nc(Cl)nc(NC2CCCCC2)n1	10%	9	3.0%	6%[15.4 µM]	-8.2	0	5%
15	COc1ccc2c(c1)nc(SCC(O)c1ccccc1)n2C (stereo not drawn)	4%	37	-1.2%	3%[15.4 µM]	-4.0	6	13%
16	Cc1ccc(CNC(=O)CN(c2cccc([N+](=O)[O-])c2)S(=O)(=O)c2ccccc2)cc1	?	25	0.4%	-57%[inhibitor]	3.6	10	-8%
17	Cc1ccc(N=C(NOCc2ccc(Cl)cc2Cl)c2nonc2N)c(C)c1	-22%	0	0.4%	26%	-0.1	3	19%
18	O=C(/C=C/Nc1ccccc1F)c1ccc(Br)cc1	11%	9	-1.7%	?	0.0	-3	0%
19	O=C(N/N=C/c1cccs1)c1cncc(Br)c1	9%	34	/	-6%[15.4 µM]	2.6	9	5%
20	CCCOC(=O)CSC1=C(C#N)C(c2ccc3c(c2)OCO3)CC(=O)N1 (stereo not drawn)	-17%	3	2.2%	7%	0.2	4	1%
21	CCCCC(=O)NNC(=S)NC(=O)c1ccc([N+](=O)[O-])cc1	7%	-4	-1.7%	-26%	5.4	-12	20µM*
22	Cc1c(S(=O)(=O)N2CCN(C(c3ccccc3)c3ccccc3)CC2)c(=O)n(C)c(=O)n1C	-5%	-14	-1.3%	-26%	-0.1	-7	-7%
23	CCC(C)NC(=O)CO/N=C/c1ccccc1OC(F)F (stereo not drawn)	13%	4	-0.6%	7%	1.9	6	1%
24	Clc1ccc(OCCCN2CCCCC2)c(Br)c1	3%	0	-1.8%	1%[15.4 µM]	0.8	-8	-22%
25	CCc1ccc2nc(NC(=O)CCCc3cccs3)sc2c1	5%	4	13µM*	-4%[15.4 µM]	4.8	-1	17%
26	O=C(Nc1ccccc1)Nc1ccc2ncoc2c1	5%	-8	/	-19%[15.4 µM]	0.2	-43	-4%
27	O=C(CCCN1C(=O)c2cccc3cccc(c23)C1=O)N1CCN(c2ccccc2)CC1	-15%	3	-26%	10%	2.9	14	-2%
28	O=C(CN1CCN(c2ccc(F)cc2)CC1)Nc1ccccc1Br	-9%	-19	/	-21%	0.2	1	-10%
29	Cc1cccc(-n2nnc3c(=O)n(Cc4ccccn4)cnc32)c1	8%	-5	/	4%[15.4 µM]	0.8	-42	-4%
30	N#CC1=C(S)N(c2ccccc2)C(c2ccc(-c3ccccc3Cl)o2)NC1=O (stereo not drawn)	-11%	-7	-4.0%	22%	9.7	10	40µM*
31	COCc1cc(CN2CCN(Cc3ccsc3)C(CCO)C2)ccc1OC (stereo not drawn)	-5%	0	/	-1%[15.4 µM]	2.2	7	17%
32	CN(c1ccc([N+](=O)[O-])cc1/C=N/NC(=O)COc1ccccc1)C1CCCCC1	-15%	-5	1.4%	-19%	3.9	-4	13%
33	O=c1oc(-c2cccc(C(F)(F)F)c2)nn1-c1ccc(C(F)(F)F)cn1	3%	30	/	-1%[15.4 µM]	5.2	/	-4%
34	S=C(Nc1ccccc1)Nc1cccc(Br)c1	13%	1	0.6%	3%	4.6	-9	-27%
35	NNC(=O)Cc1cccc2ccc(Cl)cc12	/	7	0.7%	-20%	/	/	/
36	COc1ccc(C(=O)Nc2cccc(/C(C)=N\NC(=O)c3ccoc3C)c2)cc1OC	7%	6	-1.1%	?	3.3	9	11%
37	Cc1cc(NC(=O)COC(=O)CCNS(=O)(=O)c2cccc(C(F)(F)F)c2)no1	3%	22	/	14%[15.4 µM]	-1.1	6	23%
38	CCn1nc(C(=O)OCC(=O)NCC(C)C)c2ccccc2c1=O	-15%	9	-0.9%	12%[15.4 µM]	0.7	-4	15%
39	O=C(Nc1ccc2c(c1)OCCO2)C1CCCN(S(=O)(=O)Cc2ccccc2)C1 (stereo not drawn)	2%	4	2.1%	2%	2.4	14	-4%
40	COc1ccc(NC(=O)c2c(NC(=O)Cc3ccccc3)sc3c2CCCC3)cc1	/	65	28µM*	/	/	-2	/
41	OC(COCc1ccc(Cl)cc1)CN1CCc2ccccc2C1 (stereo not drawn)	5%	-8	-0.8%	-15%	3.5	13	2%
42	C(=C\c1ccccc1)/C=N/N1CCN(c2ccccn2)CC1	-4%[15.4 µM]	-12	-1.0%	-22%	3.4	-10	?
43	O=c1oc2cc(Oc3ccc(C(F)(F)F)cc3[N+](=O)[O-])ccc2c2c1CCCC2	1%	14	-14%	-2%	0.7	-4	18%
44	O=C(NCc1ccco1)C(C(=O)c1ccccc1)n1ccccc1=O (stereo not drawn)	3%	5	-1.8%	6%	-0.5	0	7%
45	O=C(O)CN1C(=O)C(=O)N(Cc2ccc(Cl)cc2Cl)C1=O	15%	-3	-1.3%	-6%[15.4 µM]	4.1	-12	10%
46	Cc1ccccc1Nc1nc(N)nc(COC(=O)c2cccn2C)n1	21%	-13	2.6%	-20%	1.7	3	8%
47	CC(=O)NC1(C(F)(F)F)N=C(c2ccccc2)NC1=O (stereo not drawn)	7%	-14	0.7%	-12%	3.4	11	-2%
48	Cc1ccsc1C(=O)OCC(=O)N1CCOCC1	2%	8	5.4%	?	2.8	24	-9%
49	Cc1ccc(NC(=O)CN(C)C(=O)c2ccc(NC(=O)CC3SC(N4CCCC4)=NC3=O)cc2)cc1 (stereo not drawn)	3%	-12	/	-3%[15.4 µM]	/	-3	/
50	CNC(=S)N(CCO)Cc1cc2cc3c(cc2[nH]c1=O)OCO3	4%	1	3.7%	?	2.6	-7	11%
51	CCN(CC(=O)Nc1c(F)cccc1F)C(=O)CCc1nc2sc3c(c2c(=O)[nH]1)CCCC3	-3%	2	-0.1%	-9%[15.4 µM]	/	8	/
52	CCOC(=O)/C(C#N)=C/c1cn(CCC(=O)O)nc1-c1cccc(Cl)c1	/	-20	/	2%[15.4 µM]	0.9	-6	10%
53	COc1ccc(-n2nnc3c(=O)n(CC(=O)N4CCCCC4)cnc32)cc1	-3%	27	-3.0%	?	-0.9	2	6%
54	COc1ccc(NC(=S)N2CCC(NC(=O)c3ccc(F)cc3)CC2)cc1	0%	-5	/	0%	4.7	1	23%
55	Cc1nn(CCc2n[nH]c(=S)n2-c2ccc(F)cc2)c(C)c1[N+](=O)[O-]	-3%	2	-0.7%	-17%	4.2	5	-17%
56	CCOC(=O)[C@@H]1[C@H]2COc3ccc(Br)cc3[C@@H]2N2C(=O)N(c3cccc(F)c3)C(=O)[C@@]12C	-9%	6	0.3%	28%	-2.2	-16	12%
57	O=c1cc(CO)occ1OCc1cccc(F)c1	7%	-10	-1.4%	-22%	-1.6	-2	3%
58	CCOC(=O)c1c(C)[nH]c(C(=O)OCC(=O)NC(C)C)c1C	-4%	10	1.0%	1%	3.1	9	17%
59	COC(=O)c1cc2c(s1)-c1ccc(OC)cc1CC2	-4%	10	4.3%	15%	-0.1	10	?
60	CCCCNC(=O)NNC(=O)C1CC1(c1ccccc1)c1ccccc1 (stereo not drawn)	2%	2	0.0%	0%	-3.6	10	10%
61	CCN(CC(=O)NCc1ccc(Cl)cc1)C(=O)CNS(=O)(=O)c1ccc(NC(C)=O)cc1	-22%	-11	-0.8%	?	/	14	16%
62	Cc1nnsc1C(=O)NCc1c(F)cccc1Cl	5%	-16	/	16%	-1.2	12	14%
63	Cc1ccc2c3c(c(SCC(=O)Nc4nccs4)nc2c1)CCCC3	/	/	/	/	-4.7	2	6%

Not a hit list; any-hit rate near 4.9%.
